Screens as filed in PubChem BioAssay.
NPR1 antag – antagonists of human natriuretic peptide receptor Npr1. P16066. HEK293 hNpr1 GloSensor cGMP, ANP-stimulated luminescence. Potency, µM (titrated, usually from 46.3 µM), inactives show at the highest dose activity change, negative = inhibition, most hits filed as inhibitors. 1.6% of 76,000 active; active = well fitted inhibition curve with a large enough effect; inconclusive = small, poorly fitted or top-dose-only effect; inactive = no such curve, though single readings can be large or run the other way;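 further: nearly all actives have a fitted effect of over 60% in size; nearly all hits also lower the signal before the agonist is added; a reference antagonist and vehicle were the controls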
Target sequence (P16066 whole entry, looked up): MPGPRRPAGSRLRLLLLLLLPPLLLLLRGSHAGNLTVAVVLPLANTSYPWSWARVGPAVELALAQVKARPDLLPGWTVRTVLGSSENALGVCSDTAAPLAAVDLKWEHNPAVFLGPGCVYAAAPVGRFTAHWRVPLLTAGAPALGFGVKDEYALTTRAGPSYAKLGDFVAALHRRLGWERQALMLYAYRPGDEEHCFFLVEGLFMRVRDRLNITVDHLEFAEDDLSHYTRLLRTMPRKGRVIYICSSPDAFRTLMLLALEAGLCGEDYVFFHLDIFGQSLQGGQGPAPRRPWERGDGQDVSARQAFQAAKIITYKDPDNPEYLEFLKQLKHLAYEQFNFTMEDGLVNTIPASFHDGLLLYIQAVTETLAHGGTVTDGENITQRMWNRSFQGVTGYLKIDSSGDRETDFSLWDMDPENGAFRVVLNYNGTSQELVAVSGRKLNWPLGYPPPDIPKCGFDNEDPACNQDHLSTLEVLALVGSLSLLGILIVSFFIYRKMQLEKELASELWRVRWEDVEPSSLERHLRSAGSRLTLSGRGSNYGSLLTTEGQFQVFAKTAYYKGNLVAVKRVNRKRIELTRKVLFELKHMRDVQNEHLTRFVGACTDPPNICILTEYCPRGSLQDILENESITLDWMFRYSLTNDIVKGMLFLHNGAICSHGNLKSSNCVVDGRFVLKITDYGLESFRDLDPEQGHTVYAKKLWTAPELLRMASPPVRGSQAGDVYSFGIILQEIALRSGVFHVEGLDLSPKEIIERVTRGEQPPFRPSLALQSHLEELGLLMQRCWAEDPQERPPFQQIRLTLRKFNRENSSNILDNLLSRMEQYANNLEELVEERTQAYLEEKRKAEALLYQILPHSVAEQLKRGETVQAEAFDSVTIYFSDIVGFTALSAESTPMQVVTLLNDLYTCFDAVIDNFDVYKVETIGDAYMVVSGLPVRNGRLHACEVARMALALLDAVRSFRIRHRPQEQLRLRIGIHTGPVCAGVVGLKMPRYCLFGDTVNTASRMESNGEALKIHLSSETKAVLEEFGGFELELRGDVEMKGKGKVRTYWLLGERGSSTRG
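Compound pre-incubated 30 min at room temperature on GloSensor-loaded HEK293 cells stably carrying hNpr1 and the pGS-40F cGMP biosensor. Stimulation uses hNppA at 0.1 nM final; luminescence is taken at baseline and 20 min post-agonist.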
* hit, by the source's call; ? = inconclusive; & = joins results of further samples; [ ] = remark or other dose. On the % scale 0 is the no-effect control and ±100 the full control effect; potency means the concentration at half of the fitted maximal effect. An excerpt; rates above refer to the full screens.

NPR1 antag | Molecule
5% | COc1cc2c(cc1OC)C(CNC(=O)c1cccs1)N(C(=O)Nc1ccc(C)cc1)CC2 (configuration not stated)
-2%[70.6 µM] | Cc1noc2c(NCc3ccncc3)cc(-c3cccc(C(F)(F)F)c3)nc12
-1%[70.6 µM] | COc1ccc(-c2ccc3c(c2)C(=O)N2CCN(C(=O)CC(C)(C)C)C[C@@H]2C(=O)N3)cc1
-10% | Cc1noc(-c2cccc(OC3CN(C(=O)c4ccoc4)C3)c2)n1
3% | COc1ccc(N2CC(c3noc(-c4ccc(C)c(C)c4)n3)CC2=O)cc1 (configuration not stated)
? | COCC(=O)NC[C@@H]1C=C(C)[C@H](Cc2nc3ccccc3n2C)C[C@H]1C(C)C
3% | CC(C)(C)CC(=O)NCC(=O)N1CCN(c2ccccn2)CC1
-3% | O=C(c1cn(-c2ccccc2)nn1)N1CCOCC(O)(CN2CCCC2)C1 (configuration not stated)
-2% | COCCNC(=O)[C@@H]1C[C@@H](O)CN1C1CCN(C(=O)c2ccsc2)CC1
-1% | O=C(Nc1cccc(F)c1)N1CCC2(CC1)CC(OCC1CC1)CCO2 (configuration not stated)
2% | CC(=O)N1CCC(N2CCc3nn(Cc4ccccc4)c(=O)n3CC2)CC1
4% | CC(C)c1nc(N2CCCC2)ncc1C(=O)O
2% | CCn1c(-c2ccccc2)nn(CC(=O)NCCN2CCCOC2=O)c1=O
4% | Cc1ccc(C(=O)N2CCC(c3nn(C)c4c3COCC4)CC2)cn1
11% | O=C(CCc1nc(C2CCOCC2)n[nH]1)N1CCCCCC1
-25% | Cc1ccc(C(=O)NCCn2cccc2-c2nc(-c3ccc4c(c3)OCO4)no2)cn1
0% | O=C(NC(Cn1cccn1)c1ccccc1)c1ccc2nccnc2c1 (configuration not stated)
-3% | CNC(=O)[C@H]1C[C@H](Oc2ccccc2)CN1C(=O)NCc1ccc(OC)cc1
0% | Cc1ccc(C(=O)N2CCC3(CC2)N(c2ccccc2)C(=O)CS3(=O)=O)c(C)c1
-14% | O=c1[nH]c(C2CCCN(Cc3ccc(C(F)(F)F)cc3)C2)nn1-c1ccc(Cl)cc1 (configuration not stated)

In another format: results already given.
SMILES: CC(=O)N1CCC(N2CCc3nn(Cc4ccccc4)c(=O)n3CC2)CC1
  NPR1 antag: 2%
SMILES: CC(C)c1nc(N2CCCC2)ncc1C(=O)O
  NPR1 antag: 4%

Further records follow.
NPR1 antag | Molecule
-10% | Cc1ccc(C2=NC3(CCN(C(=O)c4ccc5[nH]ccc5c4)CC3)ON2)cc1
6% | CS(=O)(=O)N1CCN(C(=O)CC[C@H]2NC(=O)c3ccccc3NC2=O)CC1
? | COc1cccc(C(=O)N2CCC3(C2)NC(=O)N(Cc2ccc(Cl)cc2)C3=O)c1 (configuration not stated)
-2% | CC(C)c1nccn1Cc1cc(C(=O)NC(C)c2ccncn2)n[nH]1 (configuration not stated)
-8% | COCCOC1CN(C2CCN(C(=O)c3cccc4[nH]ccc34)CC2)C12CCCCC2 (configuration not stated)
-16% | CCOC(=O)C1CCN(C(=O)CC(c2ccc(Cl)cc2)c2cn(C)c3ccccc23)CC1 (configuration not stated)
1% | Cn1nc2n(c1=O)CCC(NS(=O)(=O)c1ccc3c(c1)OCCO3)CC2 (configuration not stated)
-11% | O=C(Nc1ccc2c(N3CCCCC3)ncnc2c1)C1CCC1
11µM* | Cc1cc(CNC(=O)c2ccncc2)c2[nH]c(-c3ccccc3)c(C)c2c1
-1% | O=C(NCC1CCCCC1)c1noc(-c2ccc[nH]c2=O)n1
-21% | COc1ccc(Nc2ncncc2-c2nc(-c3ccccc3)no2)cc1OC
2%[70.6 µM] | CCC(CC)C(=O)N[C@H]1CCN2C(=O)c3cc(-c4cccs4)ccc3NC(=O)[C@@H]2C1
7% | CNC(=O)[C@@H]1C[C@H](Oc2ccccc2)CN1C(=O)Cn1nc(C(F)(F)F)cc1C
2% | CN(CCNC(=O)CCC[C@H]1NC[C@@H]2CC1CN(Cc1ccccc1)C2)C1CCCCC1
0%[70.6 µM] | Cn1cnc2cc(-c3ccc(CO)cc3)cc(C(=O)NCc3cccnc3)c21
-5%[70.6 µM] | COc1ccc(CN[C@H]2[C@H](O)[C@H](O)C[C@@H]2c2ccc(C(F)(F)F)nc2)cc1
3% | Cc1ccccc1CN1CCc2nc(N(C)Cc3cccnc3)[nH]c(=O)c2CC1
75%[activator] | CC(C)n1cc(CN2CCC3(CC2)CC(C(=O)N2CCOCC2)N(C)C3)c2ccccc21 (configuration not stated)
13%[70.6 µM] | CC(C)Cn1c(=O)[nH]c2cccnc21
-16% | O=C(CC(c1cccc([N+](=O)[O-])c1)c1cn(Cc2ccc(F)cc2)c2ccccc12)N1CCCC1 (configuration not stated)
4% | COc1ccc2[nH]c3c(c2c1)CCNC31CCN(C(=O)c2ccccc2F)CC1
11µM* | Cc1cc(C)n(CC(=O)N[C@@H]2CN(Cc3ccccc3)C[C@H]2CN(C)C)c(=O)n1
-3% | CCOc1ccc(C(=O)NC2CCCN(c3cc(-c4ccc(OC)cc4)[nH]n3)C2)cc1 (configuration not stated)
-1% | O=C1c2c(nc(CNc3ccc(F)cc3)n2Cc2ccccc2)NCCN1CCN1CCCCC1
12% | CCNC(=O)N1CCc2nc(OCC)ccc2C1
-1%[70.6 µM] | O=C(Nc1ccc(Oc2ccccc2)cc1)O[C@@H]1CO[C@H]2[C@@H]1OC[C@@H]2NCC1CC1
-2% | NC(=O)[C@@H](Cc1c[nH]c2ccccc12)NC(=O)[C@H]1CN(C(=O)C2CCNCC2)CCN1C(=O)C1CCNCC1
0% | CCC1CN(Cc2cn(-c3ccccc3C)nc2-c2ccc(OC)c(F)c2)CCO1 (configuration not stated)
5% | Cc1nc(CC2CCN(C(=O)c3ccco3)CC2)n[nH]1
-21%[70.6 µM] | O=c1ccc(-c2cc(-c3cccc(C(F)(F)F)c3)cn3cncc23)c[nH]1
4% | CO[C@H]1[C@H](NC(=O)C2CCN(C(C)=O)CC2)c2ccccc2C12CCNCC2
9% | O=C1CC2(CCN(Cc3cccc(OCc4ccccc4Cl)c3)CC2)CN1
-8% | NC(=O)C1CCN(c2cc(-c3noc([C@@H]4CCCN4Cc4ccc(F)c(F)c4)n3)ccn2)CC1
7% | CS(=O)(=O)N1C[C@H]2CCN(C(=O)c3ccncc3F)C[C@H]21
-24% | Cc1cc(Cl)ccc1OCC(=O)N1[C@@H]2CC[C@H]1CC(NC(=O)c1ccc(F)cc1)C2 (some centres not stated)
2% | CCOC(=O)C1(Cc2ccc(Cl)cc2)CCNCC1
-1%[70.6 µM] | N#Cc1cccc(CN[C@@H]2CO[C@H](CNC(=O)C3CC3)[C@H]2O)c1
-5% | Cc1ccccc1S(=O)(=O)N1CCn2nnc(CCC(=O)NC3CC3)c2C1
2% | O=C(CC1CCN(C(=O)C2CCC2)C1)NCc1ccccc1 (configuration not stated)
0% | Cc1c(C(C)NC(=O)c2cc(C(C)C)[nH]n2)cnn1-c1ccccn1 (configuration not stated)
0% | CC(=O)N1C[C@@H]2CCCN3CCC[C@@H]([C@H]23)[C@H]1CCCC(=O)NCCc1nc2ccccc2n1C
-7%[70.6 µM] | Cn1cc(CN2CCOc3cc([S+](=O)([O-])Nc4ccccc4)ccc3C2)cn1
2%[70.6 µM] | Cc1ccc(-c2noc([C@@H]3Cc4nc[nH]c4CN3Cc3ccc(CO)o3)n2)cc1
-3% | COCCc1noc(C2Cc3ccccc3N2C(=O)Nc2ccc(OC)c(OC)c2)n1 (configuration not stated)
-1% | CCN1C(=O)C(CC(=O)NCC2CCCO2)Sc2ncccc21 (configuration not stated)
0% | CCCN1C(=O)NC(CC(=O)N2CCC(O)(c3ccc(C)cn3)CC2)C1=O (configuration not stated)
3% | CCOc1ccc(C2Cn3nnc(-c4nc(CC)no4)c3CO2)cc1 (configuration not stated)
-2% | CCc1noc(-c2ccn3c(CNC(=O)Cc4ccccc4OC)nnc3c2)n1
1% | CCc1ccc(NC(=O)Cn2c(=O)c(-c3noc(CC)n3)c3n(c2=O)CCCC3)cc1
-22% | O=C(c1ccccc1)N1CCC(Cc2nc(C3CCOCC3)no2)CC1

New compounds follow:
NPR1 antag | Molecule
3%[70.6 µM] | CC1(C)C[C@H](NCC2CCCCC2)[C@@]2(CCC(=O)NC3CC3)CC[C@](C)(O)C[C@@H]12
-17% | Cc1ccc(NC(=O)Nc2ccc(C)n(CC(=O)Nc3ccc4c(c3)OCO4)c2=O)cc1
3% | Cc1noc(C)c1CC(=O)NCCc1noc(-c2ccncc2)n1
-5% | CCc1cccc(NC(=O)CN2C(=O)NC(c3ccccc3Cl)C3=C2COC3=O)c1 (configuration not stated)
3% | O=C(Cc1ccsc1)NCc1nnc2ccc(-c3ccc(Cl)cc3)nn12
1% | COc1ccccc1CC(=O)Nc1cccn2nc(C(C)C)nc12
4% | CN1CCN(c2nc3c(s2)CN(C(=O)c2ccccn2)CC3)CC1
-28% | COc1ccc(-c2cc(N3CCN(C(=O)c4ccccc4C)CC3)n[nH]2)cc1
-13% | CCCc1ccc(S(=O)(=O)N2CCN(C3(CC)CCN(C(=O)NC)C3)CC2)cc1 (configuration not stated)
? | Cc1oc(C(O)c2ccccc2)nc1C(=O)Nc1ccncc1 (configuration not stated)
? | COc1ccc(C2Cn3nnc(-c4nc(C(C)(C)C)no4)c3CO2)cc1 (configuration not stated)
2%[70.6 µM] | Cc1cccnc1CNC[C@H]1Cn2cc(-c3ccccc3)nc2CO1
-1% | CC(C)CNC(=O)N1CCCCCCN(C)C(=O)[C@@H]2CCC[C@@H]21
-5% | FC(F)Oc1cccc(CNC2CCC3(CCNCC3)CC2)c1
-16% | O=C(Cc1cccs1)N1CCC2(CC1)N=C(c1ccc(Cl)cc1)NO2
? | CCNc1cc(N2CCC(CCC(=O)NCc3cccc(F)c3)CC2)ncn1
0%&-19% | O=C(c1ccc(F)cc1)N1CCC2(C1)C(=O)N(CCc1ccccc1)c1ccccc12 (configuration not stated)
3% | O=C(c1n[nH]c2ccccc12)N1CCC2(CC1)CC(N1CCCC1)CCO2 (configuration not stated)

Structural class: the entries above containing an aryl methoxy group.
NPR1 antag | Molecule
5% | COc1cc2c(cc1OC)C(CNC(=O)c1cccs1)N(C(=O)Nc1ccc(C)cc1)CC2 (configuration not stated)
-1%[70.6 µM] | COc1ccc(-c2ccc3c(c2)C(=O)N2CCN(C(=O)CC(C)(C)C)C[C@@H]2C(=O)N3)cc1
3% | COc1ccc(N2CC(c3noc(-c4ccc(C)c(C)c4)n3)CC2=O)cc1 (configuration not stated)
-3% | CNC(=O)[C@H]1C[C@H](Oc2ccccc2)CN1C(=O)NCc1ccc(OC)cc1
? | COc1cccc(C(=O)N2CCC3(C2)NC(=O)N(Cc2ccc(Cl)cc2)C3=O)c1 (configuration not stated)
-21% | COc1ccc(Nc2ncncc2-c2nc(-c3ccccc3)no2)cc1OC
-5%[70.6 µM] | COc1ccc(CN[C@H]2[C@H](O)[C@H](O)C[C@@H]2c2ccc(C(F)(F)F)nc2)cc1
4% | COc1ccc2[nH]c3c(c2c1)CCNC31CCN(C(=O)c2ccccc2F)CC1
-3% | CCOc1ccc(C(=O)NC2CCCN(c3cc(-c4ccc(OC)cc4)[nH]n3)C2)cc1 (configuration not stated)
0% | CCC1CN(Cc2cn(-c3ccccc3C)nc2-c2ccc(OC)c(F)c2)CCO1 (configuration not stated)
-3% | COCCc1noc(C2Cc3ccccc3N2C(=O)Nc2ccc(OC)c(OC)c2)n1 (configuration not stated)
-2% | CCc1noc(-c2ccn3c(CNC(=O)Cc4ccccc4OC)nnc3c2)n1
1% | COc1ccccc1CC(=O)Nc1cccn2nc(C(C)C)nc12
-28% | COc1ccc(-c2cc(N3CCN(C(=O)c4ccccc4C)CC3)n[nH]2)cc1
? | COc1ccc(C2Cn3nnc(-c4nc(C(C)(C)C)no4)c3CO2)cc1 (configuration not stated)
